From PubChem
RE007 growth inh – less growth of the S. pombe RE007 Vpr strain; S. pombe RE007 Vpr strain, BacTiter-Glo ATP luminescence, 24 h; control for the full effect not named in the record; Potency, µM (series often up to 92.2 µM), for inactives: at the top dose activity change, negative = less growth; hit rate 0.21% among 360,000; active = well fitted falling curve with a large enough effect; inconclusive = small, poorly fitted or top-dose-only effect; inactive = no such curve, though single readings can be large or run the other way;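 also: % is scaled to controls: 0 for no effect and ±100 for the full control effect; nearly all actives have a fitted effect of over 50% in size; the assay follows cell death caused by Vpr and the record does not say whether a fall means rescue or toxicity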
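Fission yeast strain RE007, carrying one chromosomally integrated HIV-1 vpr copy, was seeded at OD 0.01 in PMG+AL medium with 23 nL pinned compound. After 24 h at 30 °C and 99% humidity, viability was read by BacTiter-Glo luminescence.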
SARS PLpro yeast – SARS-CoV PLP inhibition in yeast; S. cerevisiae expressing SARS-CoV PLpro, growth rescue; control for the full effect not named in the record; Potency, µM (top dose mostly 32.9 µM), inactives show at the top dose activity, positive = growth rescue; hit rate 0.19% among 330,000; also: 0% is about no effect; nearly all actives have a fitted effect of over 55% in size; growth read by luminescence after 48 h
NS1 function inh – inhibitors of influenza NS1 protein function. S. cerevisiae slowed by influenza A NS1, growth recovery by OD600. Potency, µM (top dose mostly 46.1 µM), inactives show at the top dose activity, positive = more growth. hit rate 0.4% among 270,000; also: actives are rising curves; nearly all actives have a fitted effect of over 50% in size
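Growth recovery, yeast-based: influenza A NS1 expressed in S. cerevisiae causes slow growth, and suppressors are detected by OD600. The parent strain without NS1 is used as positive control.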
2A StopGo – lowers the luciferase signal of an FMDV 2A StopGo reporter; AID 1159524; Potency, µM (highest dose often 57.9 µM), inactives show at the highest dose signal change, negative = less light; human cells with a luciferase reporter of 2A StopGo recoding; control for the full effect not named in the record; hit rate 1.2% among 410,000; active = well fitted falling curve with a large enough effect; inconclusive = small, poorly fitted or top-dose-only effect; inactive = no such curve, though single readings can be large or run the other way; tested in HEK293T cells; also: % is scaled to controls: 0 for no effect and ±100 for the full control effect; nearly all actives have a fitted effect of over 45% in size; luciferase light after 4 h
Cruzain inh Det – cruzain (T. cruzi) inhibition with detergent; hit rate 0.43% among 200,000; P25779; Potency, µM, without a hit: max response, negative = inhibition, hits mostly inhibitors; AID 1478; purified cruzain, Z-FR-AMC fluorescence, 0.01% Triton; active = well fitted curve in the direction sought with a large enough effect; inconclusive = small, poorly fitted or top-dose-only effect, or another doubt; inactive = no such curve, though single readings can be large; an effect the other way counts as inactive or inconclusive;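 also: plate controls were neutral wells for no effect and buffer without enzyme for full effect; nearly all actives have a fitted effect of over 40% in size; top concentration of the series not given in the record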
Target sequence (P25779 123-467 limits assumed): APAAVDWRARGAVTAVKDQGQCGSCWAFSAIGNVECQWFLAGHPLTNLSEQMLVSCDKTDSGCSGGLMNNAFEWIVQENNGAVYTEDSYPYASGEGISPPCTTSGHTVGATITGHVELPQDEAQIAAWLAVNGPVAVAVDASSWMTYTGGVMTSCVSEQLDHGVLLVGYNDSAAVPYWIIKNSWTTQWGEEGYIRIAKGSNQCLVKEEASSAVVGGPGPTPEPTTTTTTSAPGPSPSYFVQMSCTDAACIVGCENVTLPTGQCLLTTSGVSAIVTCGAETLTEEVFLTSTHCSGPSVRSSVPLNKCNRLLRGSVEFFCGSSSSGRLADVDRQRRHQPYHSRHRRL
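Cysteine protease activity tested under reducing, mildly acidic conditions (100 mM sodium acetate pH 5.5, 5 mM DTT) plus 0.01% Triton X-100. Cruzain 1.5 nM; substrate Z-FR-AMC 2 uM; 15 min compound preincubation at room temperature.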
Marburg entry inh – Marburg virus entry inhibition; Potency, µM (titrated, usually from 37.8 µM), inactives show at the highest dose activity change, negative = inhibition, actives largely listed as inhibitors; Marburg virus pseudotyped entry inhibition, cell reporter; control for the full effect not named in the record; about a third of the inactives were read at about 46 µM; hit rate 1.8% among 300,000; AID 540276; active = well fitted inhibition curve with a large enough effect; inconclusive = small, poorly fitted or top-dose-only effect, or effect the other way; inactive = flat fitted curve, though single readings scatter; tested in HEK293 cells; about a fifth of its hits are not listed in these tables; also: % is scaled to controls: 0 for no effect and ±100 for the full control effect; luciferase read-out
Cruzain inh noDet – blocks cruzain activity in detergent-free assay; P25779; purified cruzain, Z-FR-AMC fluorescence, no detergent; Potency, µM, for inactives: max response, negative = inhibition, usual class: inhibitors; hit rate 2.3% among 200,000; active = well fitted curve in the direction sought with a large enough effect; inconclusive = small, poorly fitted or top-dose-only effect, or another doubt; inactive = no such curve, though single readings can be large; an effect the other way counts as inactive or inconclusive;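 also: plate controls were enzyme without inhibitor for no effect and buffer without enzyme for full effect; nearly all actives have a fitted effect of over 40% in size; top concentration of the series not given in the record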
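Purified cruzain at 1.5 nM, pre-incubated 15 min with compound at room temperature in 100 mM sodium acetate pH 5.5, 5 mM DTT, 0.00005% Triton X-100. Reaction started with 2 uM Z-FR-AMC; AMC fluorescence increase over 60 s gives rate.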
Lassa entry inh – Lassa virus entry inhibition | Lassa virus pseudotype entry inhibition, cell reporter; control for the full effect not named in the record | Potency, µM (doses to about 37.9 µM), without a hit: at the highest dose activity change, negative = inhibition, actives largely listed as inhibitors | hit rate 1.2% among 300,000; active means well fitted inhibition curve with a large enough effect; inconclusive means small, poorly fitted or top-dose-only effect, or effect the other way; inactive means flat fitted curve, though single readings scatter; tested in HEK293 cells; also: % is scaled to controls: 0 for no effect and ±100 for the full control effect; nearly all actives have a fitted effect of over 50% in size; luciferase read-out
Active calls of the source: *; ? = inconclusive; / = not tested or not shown; & = joins results of further samples; [ ] = dose if it differs, or a comment. Unless noted, calls follow the shape of the dose curve; as a rule, active means well fitted rising curve with a large enough effect; inconclusive means small, poorly fitted or top-dose-only effect; inactive means no such curve, though single readings can be large or run the other way. Potency is read from the fitted curve at half-maximal effect. Outcome played no part in choosing rows (roughly 4.5% active in at least one column).

SMILES | RE007 growth inh | SARS PLpro yeast | NS1 function inh | 2A StopGo | Cruzain inh Det | Marburg entry inh | Cruzain inh noDet | Lassa entry inh
NC(=O)c1ccc(N=C2C(=O)Nc3ccc([N+](=O)[O-])cc32)cc1 | 7% | 0% | 8% | 0% | / | / | / | /
CCOC(=O)Cc1nn[nH]n1 | 74% | 0% | / | 20% | / | 19%[46.1 µM] | / | 4%[46.1 µM]
COc1ccc(-c2coc3cc(O)cc(O)c3c2=O)cc1OC | 38% | 4% | -6% | 36%[activator] | / | 10%[46.1 µM] | / | -19%
O=C(NC1CCCCC1)C1CCN(S(=O)(=O)c2cccs2)CC1 | 1% | -10% | -3% | -7% | 2.7% | 4% | -5% | 15%
Cc1ccccc1NC(=O)C1CCN(C(=O)c2cnn(-c3ccccc3)c2-n2cccc2)CC1 | / | / | / | -12% | -2.5% | ? | ? | -3%[46.1 µM]
Cc1ccn2c(NC(=O)C(C)(C)Oc3ccc(Cl)cc3)c(-c3cccs3)nc2c1 | -17% | -34% | -8% | -21% | -11% | ? | 0% | ?
CCOC(=O)C1CCCN(C(=O)c2ccc3c(c2)N(Cc2ccccc2)C(=O)c2ccccc2S3(=O)=O)C1 (stereo not drawn) | / | / | / | 26% | 0.6% | 1%[46.1 µM] | ? | -27%[46.1 µM]
Cc1nc([N+](=O)[O-])c(C(=O)OCc2cccc(Br)c2)n1C | 9% | -5% | / | 6% | / | 8%[46.1 µM] | / | 6%[46.1 µM]
O=C(Cc1cccc2ccccc12)NCC1CCCO1 (stereo not drawn) | -5% | -2% | 2% | 17% | 2.3% | 18%[46.1 µM] | 1% | 5%
CC1Oc2ccccc2OC1C(=O)Nc1ccccn1 (stereo not drawn) | 0% | 15% | -4% | -7% | 1.0% | ? | -1% | -13%
COc1cccc(C(=O)N/N=C(\C)c2ccc(NC(=O)Cc3ccccc3)cc2)c1OC | 10% | 1% | 4% | -7% | / | 18%[46.1 µM] | / | -3%[46.1 µM]
COc1ccc(C(=O)NCCSCc2ccccc2)cc1OC | 10% | -5% | / | 25% | / | -3% | / | 4%[46.1 µM]
CCCc1ccc(OCc2ccc(C(=O)N/N=C/c3cccnc3)o2)cc1 | 14% | -5% | -13% | -2% | / | / | / | /
COc1ccccc1-c1noc(CCC(=O)Nc2cc(C(F)(F)F)ccc2Cl)n1 | -9% | -1% | -5% | -21% | -12% | ? | ? | -10%
CC(CNC(=O)CCS(=O)(=O)c1ccc2c(c1)NC(=O)CO2)c1ccccc1 (stereo not drawn) | -6% | -3% | -9% | -10% | / | 2%[46.1 µM] | / | -1%[46.1 µM]
CCC(C)NC(=O)c1cc2n(n1)CCCN(Cc1ccc(C)cc1)C2=O (stereo not drawn) | / | / | / | -7% | -1.0% | / | 21% | -16%[46.1 µM]
Cc1cc(NC(=O)CSc2nc3ccsc3c(=O)n2CCCCC(=O)O)no1 | 6% | -1% | 14% | 15% | -0.5% | 26% | -6% | -6%
CCOC(=O)n1c(=O)[nH]c2ccc(Br)cc21 | -5% | 0% | / | -11% | / | -26%[46.1 µM] | / | 9%[46.1 µM]
CCOC(=O)c1ccc(-c2cc(C)no2)[nH]1 | 24% | -7% | -5% | 32%[activator] | -3.2% | -22% | -5% | -23%
COc1ccc(-c2nc(CN3CCN(C(=O)c4ccco4)CC3)c(C)o2)c(OC)c1C | ? | -1% | -2% | 0% | / | 12% | / | ?
CCOC(=O)c1ccc(-n2c(C)nc3ccc(Br)cc3c2=O)cc1 | -11% | 0% | -7% | ? | / | -15% | / | ?
CCOC(=O)c1cc(C)n(CC2CCC(C(=O)Nc3cccc(C)c3)CC2)c1C (stereo not drawn) | / | / | / | -14% | -7.3% | / | -2% | -5%[46.1 µM]
Cc1ccccc1C(=O)Nc1c(C(=O)Nc2cccc(F)c2)oc2ccccc12 | / | / | / | -15% | -1.5% | 10%[46.1 µM] | 7% | 12%[46.1 µM]
CC1(C)CN2C(=S)N(c3ccccc3)C(c3ccccc3)N2C1 (stereo not drawn) | 5% | -12% | -5% | -3% | 0.6% | ? | -2% | 14%
CCc1cc(=O)oc2cc(OS(C)(=O)=O)ccc12 | 12% | / | / | 17% | / | 7% | / | -13%
Cc1ccc(-c2nnc(Nc3cccc(Br)c3)c3ccccc23)cc1S(=O)(=O)N1CCN(C)CC1 | / | / | / | -15% | 0.5% | / | -4% | ?
COCCCNc1ncnc2onc(-c3ccc(F)cc3)c12 | / | / | / | -18% | 0.8% | / | -9% | 13%[46.1 µM]
COc1ccc2cc(C(=O)Nc3ccc(F)cc3)sc(=O)c2c1OC | 21% | -9% | 2% | 16% | 0.4% | ? | 0% | -6%
CCN(CC)C(=O)Cn1cc(C(=O)C(=O)Nc2ccc3c(c2)OCCO3)c2ccccc21 | 18% | 6% | ? | 11% | / | ? | / | ?
Cc1cccc(N2CCN(S(=O)(=O)c3ccc4c(c3)CCC(=O)N4)CC2C)c1 (stereo not drawn) | -24% | 3% | 2% | -20% | 5.6% | -1% | ? | ?
COCCCNc1nc2nonc2nc1N1CCN2CCCC2C1 (stereo not drawn) | -9% | -1% | 3% | -14% | / | 0% | / | /
CCN(Cc1nc(-c2ccc(OC)c(OC)c2)no1)C(=O)c1ccc2c(c1)OCO2 | 20% | -16% | -18% | -18% | / | ? | / | ?
Cc1ccc(S(=O)(=O)N2CCN(c3ccccc3)CC2)c(C)c1 | -1% | -6% | -35% | -13% | / | / | / | /
CCc1nc(N)c(C#N)c(-c2ccco2)c1C | 0% | 3% | -2% | -10% | -24% | -7%&21% | -26% | 11%&11%
COc1ccc(CCn2c(C)nc3c(c(=O)c4ccccc4n3C)c2=O)cc1 | 10% | 2% | -4% | ? | 0.2% | ? | -17% | ?
Cn1c(C(=O)NCCN2CCOCC2)cc2c(=O)n(C)c3ccccc3c21 | 11% | -4% | 1% | -13% | ? | / | ? | /
Cc1[nH]nc(SCC(=O)N2CCCCCC2)c1[N+](=O)[O-] | -1% | -1% | 0% | 17% | / | -20%[46.1 µM] | / | ?
CC1CCCN(C(=O)CN2C(=O)CSc3ccc(S(=O)(=O)N4CCOCC4)cc32)C1 (stereo not drawn) | -4% | ? | 1% | -1% | / | / | / | /
O=c1cc(-c2ccccc2)nc(Sc2ccc([N+](=O)[O-])cc2[N+](=O)[O-])[nH]1 | 6% | / | / | 16µM* | / | 5%[46.1 µM] | / | 17%
Cc1nc(SCc2ccccc2F)c2oc3ccccc3c2n1 | -7% | 1% | -1% | 8% | / | ? | / | ?
CN(Cc1c(F)cccc1Cl)c1nnnn1-c1ccccc1 | 14% | 4% | -34% | 22% | -2.3% | -2% | -4% | -3%
Cn1c(C(=O)NCCN2CCc3ccccc3C2)cc2c(=O)[nH]c3ccccc3c21 | -7% | 0% | 4% | ? | 16µM* | ? | ? | 0.92µM*
CCn1c(=O)cc(C(=O)OC)sc1=Nc1ccc(F)c(F)c1 | -11% | -12% | -111% | 32µM* | -1.2% | / | -3% | /
CCC1=C(c2ccc(C)cc2)S(=O)(=O)N=C1N1CCC(C(=O)NCCCN2CCCCC2)CC1 | 3% | 5% | 5% | -1% | / | 29%[46.1 µM] | / | ?
CCN(CC)CCNC(=O)Cn1c(=O)c2cccn2c2ccc(F)cc21 | 7% | 1% | 3% | -4% | / | ? | / | 17%
Cc1ccc(N2CC(NC(=O)Cc3cccs3)CC2=O)cc1 (stereo not drawn) | / | / | / | -12% | 1.9% | / | -3% | ?
COc1ccccc1Nc1nc(N)nc(CSC(=S)N2CCCCC2C)n1 (stereo not drawn) | -11% | 13µM* | -7% | 15% | -7.4% | 6% | ? | 4%
Cc1c(C(=O)Nc2ccccn2)oc2c(Cl)cccc12 | -5% | -20% | / | 26% | / | ? | / | 7%[46.1 µM]
O=C(NC(NCCCN1CCOCC1)(C(F)(F)F)C(F)(F)F)C1CCCCC1 | 1% | 6% | 3% | -18% | 4.4% | -9% | 2% | -15%
Nc1ccc(-c2nc3ccc(N)cc3o2)cc1 | -22% | -20% | -10% | -23% | 20µM* | / | 16µM* | /
CCCCCCn1cnc2c(oc3nc4c(cc32)CCCC4)c1=O | 20% | -14% | -6% | 39%[activator] | -1.6% | / | -11% | /
CCCCOC(=O)C1[C@H]2C(=O)N(c3ccccc3CC)C[C@]23C=C[C@H]1O3 (stereo partly drawn) | 12% | -2% | 6% | -9% | -16% | -18% | -8% | -2%
CCC(C)(C)NC(=O)C(C(C)C)N(CC1CCCO1)C(=O)CNS(=O)(=O)c1ccccc1 (stereo not drawn) | 17% | -1% | 3% | 12% | / | -29%[46.1 µM] | / | 11%
COc1ccc(COc2ccccc2C(=O)Nc2ccccn2)cc1[N+](=O)[O-] | 6% | -2% | -9% | 2% | 0.4% | 30% | -23% | 12%
Cc1ccc(-c2nnc(SCC(=O)N3CCc4ccccc43)o2)cc1 | / | / | / | 3% | 0.7% | 3%[46.1 µM] | 8% | 20%[46.1 µM]
O=C(O)CN1C(=O)/C(=C\c2ccccc2OCc2ccc(F)cc2)SC1=S | -5% | 0% | 8% | -8% | / | / | / | /
COc1ccccc1NC(=S)NNC(=O)c1ccccc1 | 12% | / | / | 65%[activator] | / | ? | / | 20%
COc1cc(C(=O)NCCN2CCCC2)cc(OC)c1OC | 14% | 4% | 3% | -20% | 0.7% | 0% | -10% | 6%
CC1(CC(=O)N/N=C/c2cc3c(cc2Br)OCO3)OCCO1 | 8% | 4% | / | 19% | / | ? | / | 5%
CC(C)CCNC(=O)CCCCn1c(=O)[nH]c2ccsc2c1=O | 0% | -1% | / | 19% | / | 1%[46.1 µM] | / | -11%[46.1 µM]
